miR-21 FLuc: qHTS Assay for Modulators of miRNAs and/orActivators of miR-21 | HeLa miR-21 FLuc reporter, luciferase, 48 h | Potency, µM (series often up to 38.3 µM), for inactives: top-dose reporter change, positive = more light | 340,000 tested, under 10 active | AID 2288, 2010; active = well fitted rising curve with a large enough effect; inconclusive = small, poorly fitted or top-dose-only effect; inactive = no such curve, though single readings can be large or run the other way;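 further: % of control where 0% means no effect; miR-21 action dims this reporter so a rising signal means less miR-21 action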
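Using DMEM plus 10% FBS, HeLa miR-21-FLuc cells are incubated with test compounds (final up to about 40uM) for 48 hours; firefly luciferase signal is then imaged following reagent-mediated lysis.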
The depositor's hits bear a star; ? = inconclusive. Only part of the results is shown (hit frequency here may not be typical).

SMILES	miR-21 FLuc
CN(Cc1ccccc1)C(=O)c1cn(C)c2ccc(S(=O)(=O)N3CCCCC3)cc2c1=O	-1%
CCn1c(CNC(=O)C23CC4CC(CC(C4)C2)C3)nnc1SCC(=O)Nc1ccc(F)cc1	-3%
CCc1ccc(N(CC)C(=O)Cn2nc(Cc3cccnc3)c3ccccc3c2=O)cc1	0%
Cc1noc(-c2ccc(-c3noc(-c4ccc(Cl)cc4)n3)cc2)n1	-3%
CCOC(=O)c1c(NC(=O)c2ccc(S(=O)(=O)N3CCC(C)CC3)cc2)sc2c1CCN(CC)C2	13%
COc1ccc(OC(=O)c2cn(-c3cccc(OC)c3)c(=O)c3ccccc23)cc1	-3%
COc1cccc(NC(=O)c2sc3nc(C)c(C(=O)Nc4ccc(C)cc4C)c(-c4sccc4C)c3c2N)c1	2%
CC(=O)c1ccc(NC(=O)CSc2nccn2C2CCCC2)cc1	-1%
O=C(NCc1ccc(F)cc1)c1ccc(Cn2c(SCc3ccc(F)cc3)nc3cccnc32)cc1	-1%
COc1ccccc1NC(=O)N(Cc1nnc2n1CCCCC2)c1ccc(F)cc1	0%
COc1ccc(NC(=O)c2ccc3c(=O)n4nc(Nc5ccccc5C)sc4nc3c2)cc1Cl	0%
COc1ccc(CCC(=O)NCc2ccc3c(c2)CCN3C(=O)c2ccc(C)cc2)cc1	-16%
CCc1ccc(CNC(=O)c2ccc(-c3nc(CS(=O)(=O)c4ccccc4)c(C)o3)cc2)cc1	-10%
COc1ccccc1CNc1cc(-c2ccccc2)nc2nncn12	?
CCc1ccc(S(=O)(=O)c2cn(CC(=O)Nc3ccc(F)c(Cl)c3)c3ccccc3c2=O)cc1	24%
COc1ccccc1Nc1sc(C(=O)c2ccc(F)cc2)c(N)c1S(=O)(=O)c1ccc(C)cc1	13%
O=C(Cn1c(=O)c2cccn2c2cccnc21)NCc1cccc(F)c1	-23%
CCc1nnc(SCC(=O)N(CC)c2ccccc2)c2cc3oc(C)cc3n12	-1%
Cc1ccc(Sc2c(C)nn(C(C)(C)C)c2OC(=O)C(C)(C)C)cc1	4%
Cc1cccc(N2CCN(c3ccc(NC(=O)c4ccccc4)cc3C(=O)O)CC2C)c1 (stereo not drawn)	1%
CCc1ccc(CNC(=O)Cn2ccc3cc(S(=O)(=O)N4CCCCCC4)ccc32)cc1	0%
CN(C)CCNC(=O)c1ccc2nc(Cc3ccccc3)oc2c1	-22%
CCOCCCn1c(=N)c(C(=O)NCc2cccnc2)cc2c(=O)n3ccccc3nc21	0%
O=C(Nc1cccc(Cl)c1)c1ccc2nc(CCc3ccccc3)oc2c1	-14%
Cc1nc2ccc(S(=O)(=O)NC(CC(C)C)C(=O)NCc3ccc(Cl)cc3)cc2s1 (stereo not drawn)	8%

Arranged by the number under miR-21 FLuc (low to high): 5 of the compounds above
SMILES	miR-21 FLuc
COc1ccc(CCC(=O)NCc2ccc3c(c2)CCN3C(=O)c2ccc(C)cc2)cc1	-16%
O=C(Nc1cccc(Cl)c1)c1ccc2nc(CCc3ccccc3)oc2c1	-14%
Cc1noc(-c2ccc(-c3noc(-c4ccc(Cl)cc4)n3)cc2)n1	-3%
O=C(NCc1ccc(F)cc1)c1ccc(Cn2c(SCc3ccc(F)cc3)nc3cccnc32)cc1	-1%
CCOC(=O)c1c(NC(=O)c2ccc(S(=O)(=O)N3CCC(C)CC3)cc2)sc2c1CCN(CC)C2	13%

Going on with the list:
SMILES	miR-21 FLuc
Cc1ccc(Cn2nnc3c(=O)[nH]c(C4CCN(C(=O)Cc5ccccc5F)CC4)nc32)cc1	8%
CCc1c(C)sc2c1CCN(C(=O)Nc1ccccc1C(=O)OC)C2c1ccc(F)cc1 (stereo not drawn)	0%
C[C@H](NC(=O)OC(C)(C)C)c1nnc(SCc2ccc(Cl)cc2Cl)o1	26%
CC(=O)Nc1ccc(NS(=O)(=O)c2cc(Br)cc3c2N(C(=O)C2CC2)CC3)cc1	22%
Cc1ccc(Oc2c(C(F)(F)F)oc3cc(OCC(=O)NC4CCCCC4)ccc3c2=O)cc1	0%
CCOc1cc2sc(N3CCC(C(=O)Nc4ccc(C)cc4)CC3)nc2cc1Br	3%
Cc1ccc(-n2ncc3c(Nc4ccc(Oc5ccccc5)cc4)ncnc32)c(C)c1	25%
CC(C)CCn1c(=O)c2sccc2n2c(CCCC(=O)NCc3ccc(F)cc3)nnc12	6%
O=C(CN1CCN(c2ccc(Cl)cc2)CC1)Nc1ccc(Cl)c(C(F)(F)F)c1	-1%
CC1CCCN(Cc2nc3c(c(=O)n(C)c(=O)n3C)n2Cc2ccc(Cl)cc2)C1 (stereo not drawn)	-3%
Cc1ccc(C(=O)NCCc2ccc(S(N)(=O)=O)cc2)cc1-n1cnc2cccnc21	-3%
CCOc1ccc(NC(=O)c2cnc3ccccn3c2=O)cc1	-38%
CC1CCCN(S(=O)(=O)c2ccc(C(=O)Nc3nnc(C4=COCCO4)o3)cc2)C1 (stereo not drawn)	-1%
COc1ccc(CNC(=O)c2cnn(-c3ccc(OC)cc3)c2C2CCN(C(=O)OC(C)(C)C)CC2)cc1	27%
Cc1ccc(OCC(=O)Nc2ccc3nc(SCC(=O)N(C)c4ccccc4)sc3c2)cc1	26%
Cc1ccc(-n2c(=O)c3ccc(C(=O)NCc4ccco4)cc3n(CC(=O)Nc3ccc(C)c(F)c3)c2=O)cc1	-4%
O=C(CN1C(=O)C2(SCC(=O)N2c2ccc(F)cc2)c2ccccc21)NC1CCCCC1 (stereo not drawn)	2%
CC(NC(=O)CSc1nc(-c2ccccc2F)nc2cc(=O)[nH]n12)c1nc2ccccc2n1C (stereo not drawn)	4%
COc1ccc(S(=O)(=O)c2c(Nc3ccc(F)cc3)sc(C(=O)c3ccc4c(c3)OCO4)c2N)cc1	9%
Cc1c(CNC(C)c2ccccc2)c(C(=O)O)c(C)n1Cc1c(F)cccc1Cl (stereo not drawn)	4%
COc1ccc(-n2nc(C(=O)Nc3ccc(C)cn3)c3c4ccccc4n(C)c3c2=O)cc1	-3%
CCOC(=O)c1ccc(OCC2c3cc(OC)c(OC)cc3CCN2C(=O)c2ccc(S(=O)(=O)N3CCCC3)cc2)cc1 (stereo not drawn)	-4%
COc1ccc(C(=O)Nc2cccc(-c3cn4ccsc4n3)c2)c(OC)c1	-20%
Cc1ccc(CNS(=O)(=O)c2ccc3[nH]c4c(c3c2)CCCCC4)cc1	11%
COc1ccc(-c2nnc(SCC(=O)Nc3cccc(Cl)c3C)nc2-c2ccc(OC)cc2)cc1	-1%

Quoted from the listing (5 entries):
SMILES	miR-21 FLuc
COc1ccc(-n2nc(C(=O)Nc3ccc(C)cn3)c3c4ccccc4n(C)c3c2=O)cc1	-3%
CCOC(=O)c1ccc(OCC2c3cc(OC)c(OC)cc3CCN2C(=O)c2ccc(S(=O)(=O)N3CCCC3)cc2)cc1 (stereo not drawn)	-4%
COc1ccc(C(=O)Nc2cccc(-c3cn4ccsc4n3)c2)c(OC)c1	-20%
Cc1ccc(CNS(=O)(=O)c2ccc3[nH]c4c(c3c2)CCCCC4)cc1	11%
COc1ccc(-c2nnc(SCC(=O)Nc3cccc(Cl)c3C)nc2-c2ccc(OC)cc2)cc1	-1%

Additional results follow.
SMILES	miR-21 FLuc
Cc1nn2c(C)c(C(=O)N3CCN(c4ccc(Cl)cc4)CC3)cnc2c1-c1ccc(F)cc1	-2%
O=C(NCC1(c2ccccc2)CCCC1)C(=O)Nc1cccc(Br)c1	-3%
Cc1c(C(=O)Nc2ccc(Br)cc2F)oc2ccc(S(=O)(=O)N3CCC4(CC3)OCCO4)cc12	3%
O=c1cc(CSc2n[nH]c(-c3ccccc3)n2)[nH]c2ccccc12	0%
Cn1c(=O)c2cc(C(=O)N3CCN(c4ccc(Cl)cc4)CC3)sc2c2ccccc21	-1%
O=C(CCOc1ccccc1)N(Cc1cccnc1)c1nc2ccc(F)cc2s1	-11%
CSCCC(NS(=O)(=O)c1ccc2c(c1)oc(=O)n2C)C(=O)Nc1ccc(Cl)cc1 (stereo not drawn)	-4%
O=C(c1c[nH]c2ccc(S(=O)(=O)Nc3ccccc3F)cc2c1=O)N1CCCCCC1	2%
Cc1cc(C)c(NC(=O)CSc2nc3ccccc3c3nc(CCn4cncc4C)nn23)c(C)c1	2%
Cc1nc(CC(=O)Nc2cccc(C)c2C)cs1	-5%
CCOC(=O)C1CCN(c2nc3c(S(=O)(=O)c4ccccc4)nnn3c3ccc(Cl)cc23)CC1	-1%
CC(C)COc1ccccc1C1CC(=O)Nc2cc3c(cc21)OCO3 (stereo not drawn)	?
Cc1ccc(S(=O)(=O)c2nnn3c2nc(NC2CCCCCC2)c2sccc23)cc1C	-31%
CCc1ccccc1NC(=O)CSc1nnc(-c2nonc2NC(C)=O)n1C	0%
CC(C)(C)OC(=O)N1CCC(c2c(C(=O)N3CCN(c4ccccn4)CC3)cnn2-c2ccccc2)CC1	1%
CN(Cc1nc(-c2ccc(Cl)cc2)no1)S(=O)(=O)c1ccccc1	-4%
Cc1cc(C)c2c(=O)cc(C(=O)Nc3ccc(S(=O)(=O)Nc4onc(C)c4C)cc3)oc2c1	6%
COc1ccc(NC(=O)CSc2oc(-c3cccs3)nc2S(=O)(=O)c2ccc(Br)cc2)c(OC)c1	9%
Cc1ccc(S(=O)(=O)c2cn(CC(=O)Nc3cccc(Cl)c3)c3ccccc3c2=O)cc1	22%
COc1ccc(OC)c(-n2nnc(-c3nc(-c4ccc5c(c4)OCO5)no3)c2C)c1	-20%
Cc1ccc(NC(=O)CSc2nc3nc(C)c(Cc4ccccc4)c(C)n3n2)cc1	-2%
Cc1ccc(C)c(NC(=O)Cn2c(=O)n(Cc3ccco3)c(=O)c3ccc(C(=O)NC4CCCC4)cc32)c1	-11%
COc1ccc(Nc2nc3ccc(C)cc3nc2-n2nc(C)cc2C)cc1Cl	0%
CCOC(=O)N1CCC(NC(=O)c2cnn(-c3cccc(F)c3)c2-n2cccc2)CC1	1%
O=C(Nc1ccccc1-c1nc2ccccc2s1)c1cc(Cl)cc(Cl)c1	1%
SMILES	miR-21 FLuc
CC(C)(C)C(=O)Nc1ccc2nc(SCCOc3ccccc3Cl)sc2c1	-7%
Cc1cn2c(=O)c(S(=O)(=O)Nc3ccc(OC(F)(F)F)cc3)c(C)nc2s1	?
CCOC(=O)c1cccc(NC(=O)CC2C(=O)N(c3ccccc3)C(=O)N2Cc2ccco2)c1 (stereo not drawn)	9%
Cc1ccccc1NC(=O)c1ccc(CNS(=O)(=O)c2ccc3c(c2)C(C)(C)C(=O)N3C)cc1	5%
CCc1ccccc1NC(=O)Cn1nc2c3cc(F)ccc3n(Cc3cccc(C)c3)cc-2c1=O	-1%
CCOc1ccc2c(c1)c(=O)c(S(=O)(=O)c1ccc(C)cc1)cn2CC(=O)Nc1ccc(C)cc1	-1%
CCc1ccccc1NC(=O)Cn1c(=O)n(-c2ccc(C)c(C)c2)c(=O)c2oc3ccccc3c21	-1%
CCOC(=O)CSC1=Nc2ccccc2C2=NC(CCC(=O)NCc3ccc(F)cc3)C(=O)N12 (stereo not drawn)	-2%
Cc1ccc(NC(=O)CN2C(=O)c3ccccc3Sc3ccc(C(=O)N4CCOCC4)cc32)c(Cl)c1	-18%
CCOc1ccc2nc(N3CCCC(C(=O)Nc4cccc(Cl)c4C)C3)sc2c1 (stereo not drawn)	-37%
N#Cc1nc(-c2ccc(COc3ccccc3)o2)oc1N1CCN(c2ccccc2)CC1	-2%
COCCn1c(C)cc(O)c(C(c2ccccc2F)N2CCN(c3ccccc3)CC2)c1=O (stereo not drawn)	-1%
CCN1CCN(c2nc3c(S(=O)(=O)c4ccc(C)cc4)nnn3c3ccsc23)CC1	-15%
CCn1c(SCC(=O)Nc2c(C)cccc2C)nnc1-c1nonc1NC(C)=O	-8%
COCCOC(=O)c1c(C)n(S(=O)(=O)c2ccc(C)cc2)c2ccc(NS(=O)(=O)c3ccc(C)cc3)cc12	-3%
CCOc1ccc(N2CC(NC(=O)c3ccc(S(=O)(=O)N4CCCCC4)cc3)CC2=O)cc1 (stereo not drawn)	1%
O=C(CN1C=NS(=O)(=O)c2ccccc21)Nc1ccc(Br)cc1	-5%
O=C1c2ccccc2-c2onc3c(N4CCN(C5CCCCC5)CC4)cc(NCCO)c1c23	3%
COc1cccc(CNC(=O)C2=C(C)C(=O)OC23CCN(C(C)=O)CC3)c1OC	3%
CCOc1ccc(CNC(=O)C2CCN(S(=O)(=O)N3CCC(C)CC3)CC2)cc1OC	-1%
CC(NC(=O)Cn1c(-c2cccs2)cc2cc(F)ccc21)c1ccccc1 (stereo not drawn)	0%
COC(=O)c1c(NC(=O)CCCOc2ccc(C)cc2)sc2c1C(C(=O)OC)CC2 (stereo not drawn)	?
CC(C)CCNC(=O)Cc1ccc(NC(=O)N2CCCCc3ccccc32)cc1	0%
COc1ccc(OC)c(C(=O)CSc2ncc3c(n2)-c2ccccc2N(Cc2ccccc2C)S3(=O)=O)c1	0%
Cc1ccc(N2CC(NC(=O)Cc3cccs3)CC2=O)cc1 (stereo not drawn)	-3%
SMILES	miR-21 FLuc
CN(C)CCCN(C(=O)c1ccc(Br)s1)c1nc2ccc(F)cc2s1	-18%
CCOC(=O)c1cc(C)n(CC2CCC(C(=O)Nc3cccc(C)c3)CC2)c1C (stereo not drawn)	-1%
Cc1ccccc1C(=O)Nc1c(C(=O)Nc2cccc(F)c2)oc2ccccc12	4%
Cc1ccc(-c2nnc(Nc3cccc(Br)c3)c3ccccc23)cc1S(=O)(=O)N1CCN(C)CC1	24%
COCCCNc1ncnc2onc(-c3ccc(F)cc3)c12	-11%
Cc1ccccc1NC(=O)C1CCN(C(=O)c2cnn(-c3ccccc3)c2-n2cccc2)CC1	1%
CCOC(=O)C1CCCN(C(=O)c2ccc3c(c2)N(Cc2ccccc2)C(=O)c2ccccc2S3(=O)=O)C1 (stereo not drawn)	6%

Screening data from PubChem BioAssay.
